# NS1 inh = inhibitors of influenza NS1 protein function | S. cerevisiae slowed by influenza A NS1, growth recovery by OD600 | Potency, µM (doses to about 46.1 µM), without a hit: at the highest dose activity, positive = more growth | actives 0.4% (n = 270,000); active means well fitted rising curve with a large enough effect; inconclusive means small, poorly fitted or top-dose-only effect; inactive means no such curve, though single readings can be large or run the other way; note: nearly all actives have a fitted effect of over 50% in size
#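 Recovery from NS1-induced slow growth read by OD600 in budding yeast switched to galactose assay medium (pH 6.0, -URA) at 1:100 dilution. Compound 23 nl per well; the matching strain lacking NS1 serves as control.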
# StopGo reporter = lowers the luciferase signal of an FMDV 2A StopGo reporter. human cells with a luciferase reporter of 2A StopGo recoding; control for the full effect not named in the record. actives 1.2% (n = 410,000). AID 1159524. Potency, µM (titrated, usually from 57.9 µM), for inactives: top-dose signal change, negative = less light; active = well fitted falling curve with a large enough effect; inconclusive = small, poorly fitted or top-dose-only effect; inactive = no such curve, though single readings can be large or run the other way; tested in HEK293T cells; note: % is set by controls: 0 for no effect and ±100 for the full control effect; nearly all actives have a fitted effect of over 45% in size; luciferase light after 4 h
# Cruzain noTriton = inhibitors of Trypanosoma cruzi cruzain without detergent. P25779. purified cruzain, Z-FR-AMC fluorescence, no detergent. Potency, µM, for the others: max response, negative = inhibition, most hits filed as inhibitors. actives 2.3% (n = 200,000). AID 1476;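 note: plate controls were enzyme without inhibitor for no effect and buffer without enzyme for full effect; nearly all actives have a fitted effect of over 40% in size; top concentration of the series not given in the record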
# Target sequence (P25779 123-467 limits assumed): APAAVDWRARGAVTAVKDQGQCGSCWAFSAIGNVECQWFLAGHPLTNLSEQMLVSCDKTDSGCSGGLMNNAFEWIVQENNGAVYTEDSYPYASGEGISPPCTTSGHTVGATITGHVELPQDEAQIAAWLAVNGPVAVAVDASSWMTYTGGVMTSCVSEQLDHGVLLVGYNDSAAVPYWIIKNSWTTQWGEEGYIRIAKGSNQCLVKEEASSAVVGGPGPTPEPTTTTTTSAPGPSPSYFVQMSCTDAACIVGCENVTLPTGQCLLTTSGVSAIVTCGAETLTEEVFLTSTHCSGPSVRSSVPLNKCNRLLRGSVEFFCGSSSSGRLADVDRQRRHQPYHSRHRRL
#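 Purified cruzain at 1.5 nM, pre-incubated 15 min with compound at room temperature in 100 mM sodium acetate pH 5.5, 5 mM DTT, 0.00005% Triton X-100. Reaction started with 2 uM Z-FR-AMC; AMC fluorescence increase over 60 s gives rate.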
# Marburg entry inh = blocks Marburg virus binding to or entry into cells; Marburg virus pseudotyped entry inhibition, cell reporter; control for the full effect not named in the record; about a third of the inactives were read at about 46 µM; Potency, µM (titrated, usually from 37.8 µM), inactives show top-dose activity change, negative = inhibition, actives largely listed as inhibitors; actives 1.8% (n = 300,000); AID 540276; active = well fitted inhibition curve with a large enough effect; inconclusive = small, poorly fitted or top-dose-only effect, or effect the other way; inactive = flat fitted curve, though single readings scatter; tested in HEK293 cells; about a fifth of its hits are not listed in these tables; note: % is set by controls: 0 for no effect and ±100 for the full control effect; luciferase read-out
# RE007 growth inh = less growth of the S. pombe RE007 Vpr strain | S. pombe RE007 Vpr strain, BacTiter-Glo ATP luminescence, 24 h; control for the full effect not named in the record | actives 0.21% (n = 360,000) | Potency, µM (top dose mostly 92.2 µM), for the others: at the highest dose activity change, negative = less growth | AID 651644; active = well fitted falling curve with a large enough effect; inconclusive = small, poorly fitted or top-dose-only effect; inactive = no such curve, though single readings can be large or run the other way;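 note: % is set by controls: 0 for no effect and ±100 for the full control effect; nearly all actives have a fitted effect of over 50% in size; the assay follows cell death caused by Vpr and the record does not say whether a fall means rescue or toxicity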
#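 Fission yeast RE007 carrying one integrated HIV-1 vpr copy, seeded at OD 0.01 in PMG+AL medium with 23 nL pinned compound. Grown 24 h at 30 degrees; viability read by BacTiter-Glo luminescence after 5 min.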
# SARS PLP yeast = inhibitors of SARS-CoV papain-like protease in yeast; S. cerevisiae expressing SARS-CoV PLpro, growth rescue; control for the full effect not named in the record; Potency, µM (highest dose often 32.9 µM), without a hit: at the top dose activity, positive = growth rescue; actives 0.19% (n = 330,000); active means well fitted rising curve with a large enough effect; inconclusive means small, poorly fitted or top-dose-only effect; inactive means no such curve, though single readings can be large or run the other way; note: 0% is about no effect; nearly all actives have a fitted effect of over 55% in size; growth read by luminescence after 48 h
# LASV entry inh = Lassa virus entry inhibition; Lassa virus pseudotype entry inhibition, cell reporter; control for the full effect not named in the record; Potency, µM (series often up to 37.9 µM), inactives show at the top dose activity change, negative = inhibition, hits mostly inhibitors; actives 1.2% (n = 300,000); AID 540256; active means well fitted inhibition curve with a large enough effect; inconclusive means small, poorly fitted or top-dose-only effect, or effect the other way; inactive means flat fitted curve, though single readings scatter; tested in HEK293 cells; note: % is set by controls: 0 for no effect and ±100 for the full control effect; nearly all actives have a fitted effect of over 50% in size; luciferase read-out
# Cruzain Triton = cruzain (T. cruzi) inhibition with detergent; purified cruzain, Z-FR-AMC fluorescence, 0.01% Triton; Potency, µM, for the others: max response, negative = inhibition, most hits filed as inhibitors; actives 0.43% (n = 200,000);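 note: plate controls were neutral wells for no effect and buffer without enzyme for full effect; nearly all actives have a fitted effect of over 40% in size; top concentration of the series not given in the record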
#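 Sodium acetate buffer (100 mM, pH 5.5) containing 5 mM DTT and 0.01% Triton X-100 hosted 1.5 nM cruzain and test compound for 15 min at room temperature. Cleavage of 2 uM Z-FR-AMC was then tracked by fluorescence.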
# The depositor's hits bear a star; ? = inconclusive; . = not tested or not shown; & = joins results of further samples; [ ] = another dose, or the depositor's remark. Unless noted, calls come from the whole dose curve; as a rule, active = well fitted curve in the direction sought with a large enough effect; inconclusive = small, poorly fitted or top-dose-only effect, or another doubt; inactive = no such curve, though single readings can be large; an effect the other way counts as inactive or inconclusive. Potency is the fitted concentration of half-maximal effect. Random draw from the library. Share with any hit: about 4.8%.
entry	mol	SARS PLP yeast	NS1 inh	RE007 growth inh	LASV entry inh	Cruzain Triton	Marburg entry inh	Cruzain noTriton	StopGo reporter
1	CCn1cc(C(=O)O)c(=O)c2cc3c(cc21)OCO3	3%	-6%&11%	.	?	1.2%&3.6%&4.2%&1.7%	?	0%&-2%&0%&-11%	-16%
2	O=C(Cn1ncc2c3ccccc3n(Cc3ccccc3)c2c1=O)NCCCN1CCCCC1	.	.	.	10%[46.1 µM]	-4.2%	?	7%	-17%
3	N#Cc1cccc(NC(=O)CNc2cccc(S(=O)(=O)N3CCCCC3)c2)c1	8%	.	-15%	-21%	.	?	.	35µM*
4	Cc1ccc(C(=O)N2CCc3cc(CNC(=O)CCc4ccccc4)ccc32)cc1	.	.	.	?	2.2%	.	2%	10%
5	O=C(c1ccc2c(c1)N(Cc1ccccc1F)C(=O)c1ccccc1S2=O)N1CCOCC1 (stereo not drawn)	.	.	.	27%[46.1 µM]	3.5%	11%[46.1 µM]	-1%	-2%
6	C=CCOc1cccc(C2C(C(=O)c3ccc(C)o3)=C(O)C(=O)N2Cc2ccncc2)c1 (stereo not drawn)	1%	-2%	3%	28%	-1.3%	-3%	1%	40%[activator]
7	COc1ccc(C(=O)COC(=O)CCC(=O)c2cccs2)cc1	-2%	.	-11%	-17%	.	25%[46.1 µM]	.	16%
8	Cc1cc(C(=O)N/N=C2\CC(=O)c3ccccc32)c(C)n1-c1ccc(F)cc1	-1%	12%	4%	.	.	.	.	34%
9	CCCC(c1nnnn1Cc1cccs1)N1CCN(C)CC1 (stereo not drawn)	1%	-2%	-11%	-10%	.	10%[46.1 µM]	.	-25%
10	Cc1cccc(C)c1OCc1nnc(SCC(=O)Nc2nccs2)o1	-11%	3%	5%	.	0.2%	.	?	-14%
11	CCn1c(SCC(=O)Nc2ccc(N(C)C)cc2)nnc1-c1cccc(C)c1	24%	-60%	16%	13%	-3.1%	1%[46.1 µM]	-7%	-4%
12	O=C(COc1ccc(Br)cc1)NN1C(=O)c2ccccc2C1=O	.	.	-10%	-3%	.	-7%[46.1 µM]	.	34%[activator]
13	Cc1ccc([C@@H]2[C@@H]3C(=O)N(c4ccccc4)C(=O)[C@@H]3[C@]3(C)C(=O)N(Cc4ccc(-c5ccccc5)cc4)CC(=O)N23)o1	-2%	?	-7%	.	.	.	.	?
14	COc1ccccc1C(=O)NNC(=O)C1CCCO1 (stereo not drawn)	1%	7%	32%	22%	.	8%[46.1 µM]	.	-17%
15	COc1ccc(CNC(=O)c2cc3cc(S(=O)(=O)N4CCCCC4)ccc3n2C)c(OC)c1	.	.	.	?	-0.3%	.	-24%	-27%

# Part of the list above, with values under each structure.
# Values in the order: SARS PLP yeast, NS1 inh, RE007 growth inh, LASV entry inh, Cruzain Triton, Marburg entry inh, Cruzain noTriton, StopGo reporter
11. CCn1c(SCC(=O)Nc2ccc(N(C)C)cc2)nnc1-c1cccc(C)c1
    24%, -60%, 16%, 13%, -3.1%, 1%[46.1 µM], -7%, -4%
12. O=C(COc1ccc(Br)cc1)NN1C(=O)c2ccccc2C1=O
    ., ., -10%, -3%, ., -7%[46.1 µM], ., 34%[activator]
13. Cc1ccc([C@@H]2[C@@H]3C(=O)N(c4ccccc4)C(=O)[C@@H]3[C@]3(C)C(=O)N(Cc4ccc(-c5ccccc5)cc4)CC(=O)N23)o1
    -2%, ?, -7%, ., ., ., ., ?

# Other structures.
entry	mol	SARS PLP yeast	NS1 inh	RE007 growth inh	LASV entry inh	Cruzain Triton	Marburg entry inh	Cruzain noTriton	StopGo reporter
16	CCn1c(SCC(=O)c2ccccc2)nc2ccccc2c1=O	0%	-34%	7%	-16%	.	-16%[46.1 µM]	.	-4%
17	Fc1cc2[nH]c(=S)[nH]c2cc1Cl	0%	0%	14%	-3%[46.1 µM]	.	5%[46.1 µM]	.	-18%
18	CNC(=S)NNC(=O)c1sccc1OCc1cccc(C(F)(F)F)c1	2%	4%	11%	-12%	4.6%	-18%	?	22%
19	Cc1nnc(SCC(=O)Nc2ccc(O)cc2)c2ccccc12	-4%	-8%	0%	-29%[46.1 µM]	.	?	.	-7%
20	Cc1cc(C)c(NC(=S)N2CCCC2C(=O)O)c(C)c1 (stereo not drawn)	20%	-8%	7%	-2%	-1.2%	6%	-13%	-12%
21	COC(=O)[C@@H]1C[C@@]2(O)[C@H](O)[C@H](O)[C@H](O)C[C@H]2N1Cc1cc(F)ccc1F	2%	4%	4%	.	-0.8%	.	8%	3%
22	CCN1CC(C)C(O)(c2ccccc2)CC1C (stereo not drawn)	2%	6%	-20%	20%	2.6%	-3%	-9%	-13%
23	CN1CCN(S(=O)(=O)c2cccc(C(=O)Nc3cc(C(N)=O)cc(C(N)=O)c3)c2)CC1	3%	-13%	2%	5%[46.1 µM]	.	0%[46.1 µM]	.	3%
24	CN1CC=C2C(C#N)=C(N)C(C#N)(C#N)C(c3ccncc3)C2C1 (stereo not drawn)	5%	6%	27%	-1%	?	-2%	-16%	?
25	O=S(=O)(c1cnc(Cl)c(Br)c1)N1CCCCCC1	24%	7%	6%	12%	1.6%	-10%	2%	-16%
26	COc1ccc(/C=C2\SC(=O)N(CCNC(=O)Cn3[nH]c(=O)c4ccccc4c3=O)C2=O)cc1	.	.	-16%	0%[46.1 µM]	.	15%[46.1 µM]	.	?
27	Cc1ccc(-n2c(-c3ccco3)nc3nc4ccccc4nc32)cc1	1%	4%	6%	?	-1.8%	-1%	-29%	-7%
28	CNc1nc(-c2cccs2)cc(C(F)(F)F)c1C#N	1%	-2%	19%	.	.	.	.	-9%
29	COc1cc(C2Nc3ccccc3NC3=C2C(=O)CC(C)(C)C3)cc(OC)c1OC(C)=O (stereo not drawn)	0%	18%	-10%	17%[46.1 µM]	.	11%[46.1 µM]	.	-6%
30	Cc1ccc2c(c1)N(CC(=O)N1CCCC1)C(=O)C(C)O2 (stereo not drawn)	12%	15%	0%	-7%	.	?	.	1%
31	c1ccc2c(c1)OC(CCCN1CCCCC1)c1ccccc1S2 (stereo not drawn)	-3%	-6%	-15%	-17%	-1.7%	?	-8%	-21%
32	CC(C)C(=O)N=c1sc2cccc(F)c2n1C	1%	1%	-29%	.	.	.	.	16%
33	O=S1(=O)c2ccccc2N(Cc2ccccc2F)c2ccccc21	.	.	.	5%[46.1 µM]	1.8%	.	-23%	-29%
34	CCCC(CCC)C(=O)NC1CCN(Cc2ccccc2)CC1	-1%	-3%	2%	-1%[46.1 µM]	.	?	.	-6%
35	CCN(CC)c1ccc(C(=O)OCC(=O)Nc2ncccn2)cc1	7%	.	-3%	-1%[46.1 µM]	.	?	.	-5%
36	CCNC(=O)c1ccc2c(c1)C1C3CCC(C3)C1C(c1ccccc1)N2 (stereo not drawn)	-72%	-42%	1%	?	-6.9%	-4%	1%	-18%
37	CSCCC(NC(=O)C1CC1)c1nc2ccccc2[nH]1 (stereo not drawn)	-6%	2%	2%	3%	0.4%	?	-11%	-4%
38	Cc1cc(C)nc(-n2cc(C(=O)c3cc(F)ccc3O)cn2)n1	-21%	-16%	-22%	-1%	-0.7%	20%	-3%	5%
39	CC(=O)CC1(C)OC(N)=C(C#N)C1(C#N)C#N (stereo not drawn)	1%	2%	19%	-4%	6.0%	-1%[46.1 µM]	-4%	-20%
40	COc1ccc(OC)c(N(CC(=O)NCCSCc2ccco2)S(=O)(=O)c2ccc(OC)c(OC)c2)c1	?	-16%	-1%	-15%	.	15%	.	-27%
41	Cc1ccc(C)c(Nc2c([N+](=O)[O-])ccc3nonc23)c1	2%	4%	-4%	-1%	.	-19%	.	-18%
42	COC(=O)CSc1nnc(-c2cccc(NC(=O)c3ccc(C)cc3)c2)n1C	11%	-65%	-22%	-11%	0.8%	3%[46.1 µM]	3%	-12%
43	CN(C)S(=O)(=O)c1ccc2c(c1)c(=O)c(C(=O)N1CCN(c3cccc(Cl)c3)CC1)cn2C	.	.	.	-2%[46.1 µM]	-10%	?	?	-4%
44	CC(NC(=O)C1CCN(S(=O)(=O)Cc2ccccc2)CC1)c1ccccc1 (stereo not drawn)	.	.	.	13%[46.1 µM]	-7.3%	?	-9%	-1%
45	Cc1nn(Cc2ccccc2Cl)c2sc(C(=O)OC3CCCC3=O)cc12 (stereo not drawn)	-19%	-3%	-3%	?	-0.1%	0%	18%	-4%
46	CCOc1cc(/C=C/c2ccc3cccc([N+](=O)[O-])c3n2)ccc1OCC(=O)N(C)C	0%	.	-7%	.	.	?	.	?
47	O=C(CSc1oc(-c2ccc(F)cc2)nc1S(=O)(=O)c1ccccc1)c1ccc(Cl)cc1	.	.	.	-28%[46.1 µM]	-4.5%	?	32µM*	1%
48	CCOc1ccc(-n2c(N)c(C(=O)NCc3ccco3)c3nc4ccccc4nc32)cc1	-2%	8%	-4%	-4%	-9.7%	?	-2%	?
49	OCC#CC[N+]1(CC#Cc2ccccc2)CCCC1	0%	5%	-1%	7%[46.1 µM]	.	7%[46.1 µM]	.	2%
50	CC1(C)CC(=NOC(=O)c2ccccc2)CC(C)(C)N1	2%	-1%	-3%	5%	-3.4%	8%	-24%	-4%

# Three structures out of the list, sorted by heavy-atom count, rising:
entry	mol	SARS PLP yeast	NS1 inh	RE007 growth inh	LASV entry inh	Cruzain Triton	Marburg entry inh	Cruzain noTriton	StopGo reporter
49	OCC#CC[N+]1(CC#Cc2ccccc2)CCCC1	0%	5%	-1%	7%[46.1 µM]	.	7%[46.1 µM]	.	2%
50	CC1(C)CC(=NOC(=O)c2ccccc2)CC(C)(C)N1	2%	-1%	-3%	5%	-3.4%	8%	-24%	-4%
45	Cc1nn(Cc2ccccc2Cl)c2sc(C(=O)OC3CCCC3=O)cc12 (stereo not drawn)	-19%	-3%	-3%	?	-0.1%	0%	18%	-4%

# Source: PubChem BioAssay
